# Sa ugtP lethal: kills S. aureus RN4220 lacking UgtP; S. aureus RN4220 ugtP deletion, OD600 growth, 16 h; some inactives read as strong as hits; growth inhibition, % (no concentration beside the values); actives 0.54% (n = 330,000); AID 1259309;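 active = z-score under -3 and OD600 up to 0.15 on both plates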;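 also: plate controls were untreated wells for no effect and antibiotic for full effect; wells of about 80 µL received 100 nL stock; the first replicate is given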
# BJeLR lethal: BJeLR cell viability loss; inhibition, % (no concentration beside the values); BJeLR (HRASV12) viability, CellTiter-Glo ATP luminescence, 48 h; reference of the scale not given here; actives 0.17% (n = 300,000);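 active = replicate mean above 50%; inconclusive = above 50% but judged a plate artefact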;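 also: 50 nL library stock added to about 25 µL; numbers are from one replicate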
# PrP 5UTR inh: inhibition of PrP 5' UTR reporter expression; cell-based PrP 5' UTR mRNA reporter, plate reader; AID 488862; inhibition, % (concentration not given with the values); actives 0.35% (n = 340,000);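 active = every replicate at 50% or more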;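 also: 0 = median of the neutral control wells; tested in H4 reporter cells; numbers are from one replicate; inactives centre near -14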
# Sa RN4220 lethal: kills Staphylococcus aureus RN4220. actives 0.33% (n = 330,000). S. aureus RN4220 growth, OD600, 16 h. inhibition, % (test concentration not listed);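 active = z-score of -3 or lower and OD600 up to 0.18 on both plates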;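 also: plate controls were untreated cells for no effect and reference antibiotic for full effect; stock transfer was 100 nL into about 80 µL; one replicate is shown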
# Bead autofluor: counter-screen for toxin protease inhibitors: compound fluorescence; compound autofluorescence counterscreen, microsphere flow cytometry; active compounds read high; fluorescence intensity (test concentration not listed); actives 3.1% (n = 360,000);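 active = at least 3 SD above the mean of all compounds, about 16000 in these data; inconclusive = too few beads counted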;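 also: 100 nL of 1 mM stock went into each well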
# Mtb hypoxia rep: Mtb hypoxia fluorescent reporter inhibition; AID 1159583; fluorescence inhibition, % (concentration not given with the values); M. tuberculosis hypoxia-regulated fluorescent reporter, fluorescence; actives 0.1% (n = 300,000);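 active = 35 to 45% if threefold the growth effect, above 45% if 1.5-fold the growth effect; inactive = the rest, general growth blockers included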;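 also: wells of about 50 µL received 100 nL stock; 0% = vehicle wells and 100% = reference inhibitor wells; whole bacteria with a GFP reporter of the hypoxia response; strong numbers were not always called active; many hits fall short of the cut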
# Mtb hypoxia rep growth: recorded beside Mtb hypoxia rep, whose call it bears; growth inhibition, %; measured here: M. tuberculosis growth (absorbance);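 0% = vehicle and 100% = reference antibiotic; read after six days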
# Starred values were filed as active, the others as inactive; u = inconclusive; x = no result given.
SMILES,Sa ugtP lethal,BJeLR lethal,PrP 5UTR inh,Sa RN4220 lethal,Bead autofluor,Mtb hypoxia rep,Mtb hypoxia rep growth
COc1ccc(N(C(=O)c2cccc([N+](=O)[O-])c2)S(=O)(=O)c2cccs2)cc1,22,-7,-31,2.2,3437,-7,9
COc1ccc(OC)c(C(=O)c2coc3ccc(O)c(CN4CCOCC4)c23)c1,-12,1,-19,2.8,22429*,3,11
Cc1cccc(Cn2ccc(N)n2)c1,3,4,-11,4.5,3492,21,12
COc1ccccc1N1CCN(Cc2ccc3c(c2)OCO3)CC1,6,0,-15,4.7,3373,-2,5
CCn1ccnc1CNC(=O)c1ccc(OC2CCN(C(=O)COC)CC2)cc1,1,0,-8,-0.6,4452,-1,-1
N#Cc1c(-c2ccccc2F)cc(-c2cccnc2)nc1N,26,-6,8,7.0,2484,3,10
O=S(=O)(NCc1ccccc1)c1ccc2c(c1)OCCO2,-2,1,-5,1.3,4282,-3,6
CCCCCn1c(CN2CCCCC2CC)nc2c1c(=O)n(C)c(=O)n2C (stereo unspecified),-4,1,-26,-11,5007,2,1
CCn1c(SCC(=O)Nc2ccc(N(C)C)cc2)nnc1-c1ccco1,8,-1,-11,-1.3,5937,-1,4
CCCC(=NNC(=O)c1ccccc1C)c1ccccc1,0,x,x,-0.7,x,-1,2
CCOCCCNC(=O)CNC(=S)N(Cc1ccc(C)cc1)Cc1ccco1,6,-5,-31,5.6,4391,7,4
Cc1cccc(C(=O)Nc2cccc3cccnc23)c1,5,7,-31,14,3902,2,5
OC(COc1cccc(OCC(O)CN2CCCC2)c1)CN1CCCC1 (stereo unspecified),-5,-1,-13,2.4,13060,-2,10
CCS(=O)(=O)N1CCN(c2ccc(S(=O)(=O)N3CCOCC3)cc2)CC1,6,-12,11,9.6,2362,-7,-1
CCCCn1nc(C(=O)N2CCN(S(=O)(=O)c3ccccc3)CC2)c2ccccc2c1=O,-3,-5,-16,-1.6,3749,1,-3
O=Cc1cn(Cc2c(F)cccc2Cl)c2ccccc12,6,24,-2,2.6,4507,8,7
COC(=O)c1ccc(CO/N=C/c2cccc([N+](=O)[O-])c2)cc1,x,-8,5,x,3832,x,x
Cc1ccc(NC(=S)NN=Cc2ccc([N+](=O)[O-])s2)cc1,72,x,x,46,x,-2,10
O=C(COc1ccccc1)Nc1c(C(=O)N2CCC(N3CCCCC3)CC2)oc2ccccc12,8,2,0,2.5,6389,1,8
COc1ccc(-c2noc(CCC(=O)N3CCN(c4ccccc4)CC3)n2)cc1,4,x,-28,3.0,3733,-10,9
CC(C)c1ccc(OCC(=O)NCc2ccccc2)cc1,4,-6,-10,-2.3,x,10,2
COc1cccc(OC)c1OCCOc1ccccc1OC(C)C,-1,-2,7,1.5,2612,x,x
C#Cc1cccc(-n2nnc(C(C)=O)c2C)c1,19,0,-17,2.9,4579,9,-1
OC1(c2ccc(OC(F)F)cc2)CSC(=Nc2cccnc2)N1Cc1ccco1 (stereo unspecified),3,4,-27,12,4106,16,5
CCN(CC)C(=O)c1[nH]cnc1C(=O)NC1CCN(C(=O)OC(C)(C)C)CC1,4,x,-24,2.8,3025,11,12
Nc1ccccc1-n1c(=O)n(Cc2ccccc2F)c(=O)c2[nH]cnc21,5,1,-3,2.8,3652,-6,-1
O=C(c1ccccc1F)N1CCCC(C(=O)N2CCN(c3ccccc3)CC2)C1 (stereo unspecified),6,2,-8,-1.0,4245,-2,-3
Nc1nc(Cl)cc(NCCc2ccccc2)n1,2,-1,x,8.0,x,1,-4
Cc1noc(NC(=O)c2cccc(C(F)(F)F)c2)c1Cl,2,6,-7,8.4,4437,0,3
CCOc1cc(C(=O)O)cc(Cl)c1OCC#N,0,1,-7,8.3,7773,8,8
CN(C)S(=O)(=O)c1cccc(NC(=S)NN=C(Cc2ccccc2)Cc2ccccc2)c1,8,21,-6,6.8,2458,5,-1
CCC(C)NC(=O)C(Cc1ccccc1)NS(=O)(=O)c1ccc2c(c1)CCC(=O)N2 (stereo unspecified),6,14,-22,3.5,6284,9,9
Cn1c(NC(=O)c2ccco2)cc(=O)n(C)c1=O,13,-6,-10,4.0,9779,5,0
Cc1nc(SCCOc2ccccc2)[nH]c(=O)c1Cc1ccccc1,-3,-5,-10,1.1,4951,-2,-7
CC(=O)/C(=N\Nc1ccccc1)Sc1cccc2cccnc12,x,4,-42,x,7089,x,x
O=[N+]([O-])c1cc(F)c(N2CCCC2)cc1N1CCNCC1,10,10,x,5.4,x,13,3
COc1ccc(O)c(CN2CCCC(C(=O)c3ccccc3SC)C2)c1 (stereo unspecified),8,5,-45,5.9,4615,-1,4
COc1ccc(S(=O)(=O)N(C)CC2Oc3c(NC(=O)Nc4ccc(C(F)(F)F)cc4)cccc3C(=O)N(C(C)CO)CC2C)cc1 (stereo unspecified),-1,x,x,-7.4,x,-2,0
CCC(=O)NNC(=O)c1cc(COc2cc(Cl)cc(Cl)c2)on1,0,-3,4,5.9,3659,2,7
COc1cc(C(C(=O)NC(C)(C)C)N(Cc2ccccc2)C(=O)c2cnccn2)cc(OC)c1OC (stereo unspecified),4,-11,-13,5.2,5241,6,0
COC(C(=O)NNC(=O)Cc1ccc(Cl)cc1)c1ccccc1 (stereo unspecified),-4,-2,-19,2.0,u,9,1
C=CCNC(=O)COC(=O)c1cc(S(=O)(=O)N2CCOCC2)ccc1N1CCCCC1,8,2,2,3.4,3221,2,3
Cc1ccccc1C(=O)OC(C)CN1CCOCC1 (stereo unspecified),-1,13,-34,6.6,2708,17,7
COc1ccc(-c2cc(C(=O)N3CC(C)CC(C)C3)c3ccccc3n2)cc1 (stereo unspecified),8,-5,-6,0.7,6158,2,5
COc1nc(NC(C)(C)C)nc(Oc2ccc(=O)n(-c3ccccc3)n2)n1,-1,0,-7,5.9,21751*,1,2
CCOCCCNCC(O)c1ccccc1 (stereo unspecified),11,-13,-32,4.0,10732,10,3
COc1ccc(-c2csc(/C(C#N)=C(\O)CSc3nccn3C)n2)cc1OC,x,0,-5,x,2862,x,x
CCOc1ccccc1C(=O)Nc1cnn(Cc2ccc(F)cc2)c1,6,1,-5,1.1,7786,6,12
Cc1ccc(CC(C(=O)O)C(C)C(=O)Nc2ccc(F)cc2)cc1 (stereo unspecified),4,2,-36,3.4,2831,5,-2
O=c1c(-c2nc3ccccc3s2)cccn1Cc1ccc(Cl)c(Cl)c1,3,-3,-2,-6.5,4300,6,19

# Remaining list, next part.
SMILES,Sa ugtP lethal,BJeLR lethal,PrP 5UTR inh,Sa RN4220 lethal,Bead autofluor,Mtb hypoxia rep,Mtb hypoxia rep growth
CN1CCCN(C(=O)c2ccc(Cl)s2)CC1,3,-14,-17,1.8,5542,4,1
COc1ccc2c(c1OC)C(=O)N(c1ccccc1)C2=O,-3,-4,-17,-1.5,3364,3,-3
CC(C)CCn1cnc2c(oc3nc4c(cc32)CCCC4)c1=O,-4,6,12,-0.6,3750,12,21
COc1cc(CNCc2cc(OC)ccc2OC)cc(OC)c1,0,-14,-1,1.4,3848,1,12
Oc1ccccc1/C=C/c1noc(-c2ccccc2O)n1,3,2,-111,0.9,4234,-4,3
CC(=NNS(=O)(=O)c1ccc(C)cc1C)c1c[nH]c2ccccc12,-12,x,x,0.1,x,-2,1
O=C(NCCN1CCOCC1)c1cc2ccccc2oc1=O,-1,-2,-18,2.2,3679,0,7
CN(Cc1ccc(Cl)s1)C(=O)CSc1nnc(C2CC2)n1C1CC1,4,x,-3,0.9,3583,x,x
CCC(=O)NCCC(c1ccco1)c1ccccc1OC (stereo unspecified),-9,7,4,0.2,4656,x,x
Cn1c2c(c3cc([N+](=O)[O-])ccc31)CCCC2,-12,-3,-11,-7.5,4342,-4,8

# An excerpt of these results, as tab-separated lines.
Structure	Sa ugtP lethal	BJeLR lethal	PrP 5UTR inh	Sa RN4220 lethal	Bead autofluor	Mtb hypoxia rep	Mtb hypoxia rep growth
CCOCCCNCC(O)c1ccccc1 (stereo unspecified)	11	-13	-32	4.0	10732	10	3
COc1ccc(-c2csc(/C(C#N)=C(\O)CSc3nccn3C)n2)cc1OC	x	0	-5	x	2862	x	x
CCOc1ccccc1C(=O)Nc1cnn(Cc2ccc(F)cc2)c1	6	1	-5	1.1	7786	6	12
Cc1ccc(CC(C(=O)O)C(C)C(=O)Nc2ccc(F)cc2)cc1 (stereo unspecified)	4	2	-36	3.4	2831	5	-2
O=c1c(-c2nc3ccccc3s2)cccn1Cc1ccc(Cl)c(Cl)c1	3	-3	-2	-6.5	4300	6	19
CN1CCCN(C(=O)c2ccc(Cl)s2)CC1	3	-14	-17	1.8	5542	4	1
COc1ccc2c(c1OC)C(=O)N(c1ccccc1)C2=O	-3	-4	-17	-1.5	3364	3	-3
CC(C)CCn1cnc2c(oc3nc4c(cc32)CCCC4)c1=O	-4	6	12	-0.6	3750	12	21
COc1cc(CNCc2cc(OC)ccc2OC)cc(OC)c1	0	-14	-1	1.4	3848	1	12
Oc1ccccc1/C=C/c1noc(-c2ccccc2O)n1	3	2	-111	0.9	4234	-4	3
CC(=NNS(=O)(=O)c1ccc(C)cc1C)c1c[nH]c2ccccc12	-12	x	x	0.1	x	-2	1
O=C(NCCN1CCOCC1)c1cc2ccccc2oc1=O	-1	-2	-18	2.2	3679	0	7
CN(Cc1ccc(Cl)s1)C(=O)CSc1nnc(C2CC2)n1C1CC1	4	x	-3	0.9	3583	x	x
CCC(=O)NCCC(c1ccco1)c1ccccc1OC (stereo unspecified)	-9	7	4	0.2	4656	x	x

# The list goes on:
SMILES,Sa ugtP lethal,BJeLR lethal,PrP 5UTR inh,Sa RN4220 lethal,Bead autofluor,Mtb hypoxia rep,Mtb hypoxia rep growth
Cc1cc(C(=O)OCC(=O)Nc2cccc(S(N)(=O)=O)c2)c2ccccc2n1,-8,-4,-8,-2.7,5081,-1,-2
Cc1noc(C(F)(F)F)c1C(=O)NNC(=O)c1ccccc1,-3,-3,-27,13,5988,-8,-3
O=S(=O)(c1ccc(Cl)cc1)n1nnc2ccccc21,-1,4,-17,5.7,4162,-6,7
C=Cn1ccnc1P(=S)(c1ccc(N(C)C)cc1)c1nccn1C=C,0,-5,-22,9.6,10188,7,6
CCOC(=O)CC(NC(=O)CCc1c(C)nc2ncnn2c1C)c1ccc(C)cc1 (stereo unspecified),1,-4,-6,2.1,2207,12,6
O=C(CN1CCCC1)NC12CC3CC(CC(C3)C1)C2,7,3,-28,-0.7,10757,9,15
CCc1ccccc1NC(=S)N(CCN1CCCCCC1)Cc1ccco1,15,12,-17,0.8,3390,9,2
O=C1NCCCc2c1oc1ccc(O)cc21,6,-2,-13,1.7,10456,1,2
CC(=O)N1c2ccc(S(=O)(=O)NCCC(=O)Nc3ccc(F)cc3C)cc2CC1C (stereo unspecified),-6,-12,-17,-3.6,5566,-4,-1
CCC(=NC1CC1)c1c(O)n(C2CCCCC2)c(=O)[nH]c1=O,3,-10,-8,0.5,9885,8,6
O=C1C(=Nc2cccc(Cl)c2)CC(c2ccc(Cl)cc2)N1c1cccc(Cl)c1 (stereo unspecified),1,-7,-5,-2.7,3996,7,-3
Cc1ccc(NC(=O)CCN2C(=O)c3ccccc3S2(=O)=O)cc1F,4,-13,-12,2.0,4701,2,7
CC1CN(C(C)CO)C(=O)c2cccc(NC(=O)Nc3ccc(F)cc3)c2OC1CN(C)Cc1ccccc1 (stereo unspecified),3,x,x,0.8,x,4,4
CC1=C(C)/C(=N\OS(=O)(=O)c2ccccc2)C=CC1=O,x,84*,-16,x,3180,x,x
Cc1occc1-c1nnc(SCC(=O)N2CCCCC2)o1,3,-6,-7,7.5,3538,0,0
O=C(C1=C[C@@H](C2CCCCC2)C[C@@H](OCCCCO)O1)N1CCOCC1,-3,7,2,-5.2,4052,5,7
Cc1ccc(S(=O)(=O)N(CC(=O)NCc2cccs2)c2ccccc2)cc1,-8,x,-18,-5.4,3782,-7,-5

# Source: PubChem BioAssay

# Rows are unselected (roughly 4% active in at least one column).
